Screening results deposited in PubChem by Broad Institute.
Vaccinia stage = Vaccinia orthopox stage-specific inhibition. Vaccinia-infected cells, mCherry/Venus stage reporter fluorescence; active compounds read low; some inactives read as strong as hits. 0.01% of 89,000 active. activity change (mCherry), % (concentration not given with the values). AID 1053133;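 active = mCherry past -33% and 40 or more points under the early reporter, replicates agreeing; inconclusive = past -33% without that gap or agreement; tested in A549 cells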;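 also: scaled between vehicle wells and reference inhibitor wells; 23 nL library stock went into each well; one replicate is shown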
Vaccinia stage Venus = second read-out of Vaccinia stage, no call of its own (marks repeat the call); activity change (Venus), %; measured here: Venus reporter, other viral stage;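 negative = less Venus signal; first of two replicates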
* = called active by the depositor; ? = inconclusive; . = no result given. A portion of the library. The share of hits here may be higher or lower than overall.

SMILES | Vaccinia stage | Vaccinia stage Venus
C[C@@H]1CCCCO[C@@H](CN(C)S(=O)(=O)c2ccc(Cl)cc2)[C@H](C)CN([C@H](C)CO)C(=O)c2cc(NS(C)(=O)=O)ccc2O1 | ? | .
CC(C)NC(=O)N(C)C[C@@H]1Oc2c(NC(=O)CCCCCC(=O)Nc3ccccc3N)cccc2C(=O)N([C@@H](C)CO)C[C@H]1C | 9.9 | 5.3
CC(C)NC(=O)N(C)C[C@H]1OCCCC[C@@H](C)Oc2ccc(NC(=O)c3ccccc3)cc2C(=O)N([C@H](C)CO)C[C@H]1C | 3.8 | 6.2
CC(C)c1cn(CC[C@H]2CC[C@@H](NC(=O)C3CCCC3)[C@@H](CO)O2)nn1 | 4.5 | 12.4
CCCC(=O)Nc1ccc2c(c1)C(=O)N(C)C[C@H](OC)[C@H](C)CN(Cc1ccc(-c3ccccn3)cc1)[C@@H](C)CO2 | -18.5 | -14.6
O=C(NCC[C@@H]1CC[C@@H](NC(=O)C2CC2)[C@H](CO)O1)c1cnccn1 | -2.3 | 1.9
COc1ccc(-c2cnc3c(c2)C(=O)N([C@@H](C)CO)C[C@@H](C)[C@H](CN(C)Cc2cccnc2)O3)cc1 | 8.8 | -4.7
CCS(=O)(=O)Nc1ccc2c(c1)C(=O)N(C)C[C@H](OC)[C@H](C)CN(C(C)=O)[C@@H](C)CO2 | 9.7 | 14.0
C[C@H](CO)N1C[C@H](C)[C@H](CN(C)C(=O)Nc2ccc(F)cc2)Oc2ccc(NC(=O)Nc3cccc4ccccc34)cc2C1=O | 11.6 | 2.3
CN1c2ccc(Br)cc2[C@H]2[C@H](CCN2S(=O)(=O)c2cccc(F)c2)[C@@H]1CO | -28.9 | -21.9
COCC(=O)Nc1ccc2c(c1)OC[C@H](C)N(C(=O)Cc1ccccn1)C[C@H](C)[C@@H](OC)CN(C)C2=O | 4.6 | 3.4
C[C@H](CO)N1C[C@H](C)[C@H](CN(C)C(=O)NC2CCCCC2)Oc2c(NC(=O)Nc3ccccc3)cccc2C1=O | ? | .
CN1C[C@H]2[C@@H](c3ccccc31)[C@@H](CO)N2C(=O)C1CCCCC1 | 10.5 | -8.2
CC(=O)N[C@H]1C[C@@H]2O[C@@H](CO)CC[C@@H]2O[C@@H]1CCc1ccc(-c2ccc(F)cc2)cc1 | -20.9 | -3.5
C[C@H]1CN([C@@H](C)CO)C(=O)c2cc(-c3ccc(F)cc3)cnc2O[C@@H]1CN(C)C(=O)c1cccnc1 | 18.3 | 9.2
CO[C@H]1CN(C)C(=O)c2cc(NS(C)(=O)=O)ccc2OC[C@H](C)N(CC2CC2)C[C@H]1C | 5.2 | 0.6
C[C@@H]1CN([C@H](C)CO)C(=O)c2cc(NS(C)(=O)=O)ccc2O[C@@H]1CN(C)C(=O)Nc1ccc(F)cc1 | 19.0 | 16.6
C[C@H](CO)N1C[C@H](C)[C@H](CN(C)Cc2ccncc2)Oc2ncc(C#Cc3ccccc3)cc2C1=O | -4.7 | -6.2
C[C@H](CO)N1C[C@H](C)[C@H](CN(C)S(=O)(=O)c2cccs2)Oc2c(NS(=O)(=O)c3ccc(F)cc3)cccc2C1=O | -12.6 | -12.8
CC=Cc1ccc2n(c1=O)C[C@H]1[C@H](CO)[C@@H](C(=O)NCc3ccc(F)cc3)N(CC)[C@@H]21 (mixture of isomers) | 20.4 | 16.0
C[C@@H]1CN([C@H](C)CO)C(=O)c2cc(NC(=O)Cc3ccccc3)ccc2O[C@H]1CN(C)S(=O)(=O)c1cn(C)cn1 | 14.1 | 9.7
CCCNC(=O)N1CC2(C1)[C@H](c1ccccc1)[C@@H](CO)N2C(=O)C1CCC1 | -0.3 | -1.9
COc1ccc(CN2C[C@@H](C)[C@H](OC)CN(C)C(=O)c3cc(NC(=O)C4CC4)ccc3OC[C@H]2C)cc1 | -7.5 | 3.3
C[C@@H]1CN([C@@H](C)CO)C(=O)c2cccc(NC(=O)C3CCOCC3)c2O[C@H]1CN(C)C(=O)NC1CCCCC1 | -2.9 | -0.5
COc1ccc(NC(=O)N[C@H]2CC[C@@H](CCNC(=O)c3ccccc3F)O[C@H]2CO)cc1 | -3.5 | 7.7

Next entries:
SMILES | Vaccinia stage | Vaccinia stage Venus
Cc1noc(C)c1NC(=O)Nc1ccc2c(c1)C(=O)N([C@H](C)CO)C[C@H](C)[C@@H](CN(C)C(=O)Nc1ccc(C(F)(F)F)cc1)OCCCC[C@H](C)O2 | 1.5 | -2.0
CO[C@@H]1CN(C)C(=O)c2ccc(NC(=O)c3ccccc3)cc2OC[C@@H](C)NC[C@H]1C | 12.2 | 5.3
O=C(CC1CC1)N1CC(=O)N2[C@@H](CO)[C@H](c3ccc(-c4cccnc4)cc3)[C@@H]2C1 | 28.1 | 7.3
C[C@H]1C=C(C(=O)NCc2nc3ccccc3[nH]2)O[C@@H](OCc2ccc(CO)cc2)C1 | 15.2 | 3.1
C[C@H](CO)N1C[C@H](C)[C@@H](CN(C)S(=O)(=O)c2cn(C)cn2)OCc2cn(nn2)CCCC1=O | 5.6 | 5.8
CCC(=O)N(C)C[C@H]1[C@@H](c2ccc(-c3ccc(F)cc3)cc2)[C@@H](CO)N1C(C)=O | ? | .
C/C=C/c1ccc([C@H]2[C@@H](CO)N3C(=O)CN(Cc4ccc(C)cc4)C[C@@H]23)cc1 | 5.5 | 4.7
O=C(Nc1ccc(Cl)cc1)N[C@@H]1CC[C@H](CCn2cc(C3(O)CCCC3)nn2)O[C@H]1CO | 2.1 | 10.6
O=C(NC1CCCCC1)N1CC(=O)N2[C@H](CO)[C@H](c3ccc(-c4cccnc4)cc3)[C@H]2C1 | -12.9 | -2.8
COc1ccc(NC(=O)Nc2ccc3c(c2)C(=O)N([C@@H](C)CO)C[C@H](C)[C@H](CN(C)Cc2ccc(-c4ccccc4)cc2)O3)cc1 | -27.4 | -27.2
CO[C@H]1CN(C)C(=O)c2ccc(NC(=O)C3CCC3)cc2OC[C@@H](C)N(Cc2ccc(F)cc2)C[C@H]1C | -12.6 | -4.6
CCC(=O)N(C)C[C@@H]1Oc2cc(/C=C/c3ccccc3)ccc2S(=O)(=O)N([C@H](C)CO)C[C@@H]1C | -21.5 | -22.3
Cc1ccccc1S(=O)(=O)N[C@H]1CC[C@H](CCn2cc(-c3ccc(F)cc3)nn2)O[C@H]1CO | -28.8 | -25.8
C=CCNC(=O)[C@H]1[C@@H]2C(=O)O[C@@H](c3ccccc3)[C@@H](c3ccccc3)N2[C@@H](c2ccc(O)cc2)[C@]12C(=O)N(C(=O)OCCOC)c1ccc(C#CCC(C(=O)OC)C(=O)OC)cc12 | 8.1 | 14.9
CN1C(=O)c2cc(NC(=O)Nc3ccc(Cl)cc3)ccc2OC[C@H]2O[C@@H](CC(=O)O)CC[C@H]21 | -6.6 | 0.0
COCC#Cc1ccc2c(c1)O[C@@H](CN(C)Cc1ccccc1)[C@H](C)CN([C@@H](C)CO)S2(=O)=O | ? | .
COC(=O)C[C@H]1CC[C@@H]2[C@H](COC[C@H](O)CN2S(=O)(=O)c2ccccc2C)O1 | 0.3 | -5.4
CO[C@@H]1CN(C)C(=O)c2cc(NC(=O)c3cnccn3)ccc2OC[C@H](C)NC[C@@H]1C | 13.0 | 12.7
C[C@H](CO)N1C[C@H](C)[C@@H](CN(C)Cc2ccncc2)Oc2ncc(-c3cccc(F)c3)cc2C1=O | -10.1 | -8.5
Cc1noc(C)c1NC(=O)N(C)C[C@H]1OCCCC[C@H](C)Oc2ccc(NC(=O)c3ccncc3)cc2C(=O)N([C@@H](C)CO)C[C@@H]1C | 28.7 | 12.6
CN1C(=O)c2cc(NC(=O)c3cnccn3)ccc2OC[C@@H]2O[C@H](CC(=O)N[C@H]3CCN(Cc4ccccc4)C3)CC[C@H]21 | 19.0 | 10.5
O=C(C1CCCC1)N1CCCCN2[C@H](C1)[C@H](c1ccc(-c3ccncc3)cc1)[C@@H]2CO | 9.3 | 1.5
CC(=O)N1[C@H](C(=O)NC2CCCCC2)[C@@H](CO)[C@@H]2Cn3c(cccc3=O)[C@@H]21 | 6.3 | 6.5
O=C(C[C@@H]1CC[C@H](NC(=O)Nc2ccc(C(F)(F)F)cc2)[C@@H](CO)O1)NCc1cccc(F)c1 | 12.7 | 6.6
Cc1noc(C)c1S(=O)(=O)Nc1ccc2c(c1)C(=O)N([C@@H](C)CO)C[C@@H](C)[C@@H](CN(C)Cc1ccc(C(F)(F)F)cc1)OCCCC[C@@H](C)O2 | ? | .

Profiles from above. Order of screens: Vaccinia stage | Vaccinia stage Venus
CC=Cc1ccc2n(c1=O)C[C@H]1[C@H](CO)[C@@H](C(=O)NCc3ccc(F)cc3)N(CC)[C@@H]21 (mixture of isomers) as listed: 20.4 | 16.0
O=C(Nc1ccc(Cl)cc1)N[C@@H]1CC[C@H](CCn2cc(C3(O)CCCC3)nn2)O[C@H]1CO as listed: 2.1 | 10.6

Returning to the listing with the 5 entries that preceded the break.
SMILES | Vaccinia stage | Vaccinia stage Venus
CN1C(=O)c2cc(NC(=O)c3cnccn3)ccc2OC[C@@H]2O[C@H](CC(=O)N[C@H]3CCN(Cc4ccccc4)C3)CC[C@H]21 | 19.0 | 10.5
O=C(C1CCCC1)N1CCCCN2[C@H](C1)[C@H](c1ccc(-c3ccncc3)cc1)[C@@H]2CO | 9.3 | 1.5
CC(=O)N1[C@H](C(=O)NC2CCCCC2)[C@@H](CO)[C@@H]2Cn3c(cccc3=O)[C@@H]21 | 6.3 | 6.5
O=C(C[C@@H]1CC[C@H](NC(=O)Nc2ccc(C(F)(F)F)cc2)[C@@H](CO)O1)NCc1cccc(F)c1 | 12.7 | 6.6
Cc1noc(C)c1S(=O)(=O)Nc1ccc2c(c1)C(=O)N([C@@H](C)CO)C[C@@H](C)[C@@H](CN(C)Cc1ccc(C(F)(F)F)cc1)OCCCC[C@@H](C)O2 | ? | .
COc1ccc(CN(C)C[C@@H]2OCCCC[C@H](C)Oc3ccc(NC(=O)Nc4ccc5c(c4)OCO5)cc3C(=O)N([C@@H](C)CO)C[C@@H]2C)cc1 | ? | .
C[C@@H]1CN([C@H](C)CO)C(=O)Cc2cc(NC(=O)Nc3cccc4ccccc34)ccc2O[C@@H]1CN(C)Cc1ccc(C(=O)O)cc1 | 20.9 | 13.6
COc1ccc(NC(=O)N2CC[C@@H]3[C@@H](CO)N(C)c4ccc(-c5ccc(F)cc5)cc4[C@@H]32)cc1 | ? | .
COc1ccc(-c2cn(CC[C@@H]3CC[C@@H](N)[C@H](CO)O3)nn2)cc1 | -10.0 | -3.5
CC(=O)N1[C@H](CNC(=O)C2CC2)[C@H](c2ccc(-c3cccc(F)c3)cc2)[C@@H]1CO | 1.2 | 13.0
COC(=O)C[C@@H]1CC[C@@H](NC(=O)Nc2ccc(C(F)(F)F)cc2)[C@H](CO)O1 | 11.8 | 14.1
CCC(=O)N[C@H]1CC[C@@H](CCNS(=O)(=O)c2ccc(Cl)cc2)O[C@@H]1CO | 6.4 | 8.2
Cc1noc(C)c1C(=O)N(C)C[C@H]1OCc2ccccc2-c2c(n(C)c3ccccc23)C(=O)N([C@H](C)CO)C[C@@H]1C | 5.2 | -5.7
CNC(=O)C[C@@H]1CC[C@@H]2[C@@H](COc3ccc(NC(=O)C4CCCCC4)cc3C(=O)N2C)O1 | 13.8 | 10.2
COc1cccc(CN2[C@H](CO)[C@@H](c3ccccc3)C23CN(C(=O)C2CCC2)C3)c1 | 2.3 | -2.1
C[C@H](CO)N1C[C@H](C)[C@@H](CN(C)Cc2cccc(C(=O)O)c2)Oc2ncc(/C=C/c3ccccc3)cc2C1=O | 16.3 | 3.1
CO[C@H]1CN(C)C(=O)c2ccc(NS(C)(=O)=O)cc2OC[C@@H](C)N(Cc2cccnc2)C[C@@H]1C | 58.7 | 17.5
CCC(=O)N1[C@@H]2c3ccc(-c4ccccc4)c(=O)n3C[C@H]1[C@H](CO)[C@H]2C(=O)N(C)C | 2.9 | -2.7
CCCNC(=O)N1C[C@@H](O)COC[C@@H]2O[C@@H](CC(=O)N3CCN(C)CC3)CC[C@H]21 | 8.2 | 9.4
C[C@@H]1CN([C@@H](C)CO)C(=O)c2cc(C3=CCCC3)cnc2O[C@H]1CN(C)C(=O)C1CCOCC1 | 20.3 | 17.6
CO[C@@H]1CN(C)C(=O)c2ccc(NC(C)=O)cc2OC[C@H](C)N(CCc2ccccc2)C[C@H]1C | -2.2 | 1.1
NCC[C@H]1CC[C@H](NC(=O)C2CC2)[C@H](CO)O1 | 6.6 | 5.9
Cc1noc(C)c1NC(=O)Nc1ccc2c(c1)C(=O)N([C@H](C)CO)C[C@@H](C)[C@H](CN(C)Cc1ccc(Cl)c(Cl)c1)OCCCC[C@H](C)O2 | ? | .
CO[C@H]1CN(C)C(=O)c2cc(NC(=O)Nc3cc(F)ccc3F)ccc2OC[C@H](C)N(C(=O)c2ccccn2)C[C@@H]1C | 16.9 | 11.1
COc1ccc(S(=O)(=O)N(C)C[C@H]2Oc3c(NS(C)(=O)=O)cccc3C(=O)N([C@@H](C)CO)C[C@H]2C)cc1 | 2.1 | 3.7
C[C@H]1CN([C@@H](C)CO)C(=O)c2cc(-c3ccc(C(=O)N(C)C)cc3)cnc2O[C@H]1CN(C)C(=O)CN(C)C | 23.7 | 9.8
COc1ccc(-c2ccc([C@H]3[C@H](C#N)N(C(=O)C4CCCC4)[C@H]3CO)cc2)cc1 | -10.8 | -13.0
COc1ccc(S(=O)(=O)N(C)C[C@H]2Oc3c(NC(=O)NC4CCCCC4)cccc3C(=O)N([C@H](C)CO)C[C@@H]2C)cc1 | -17.5 | -11.3
C[C@@H]1CN([C@H](C)CO)C(=O)Cc2cc(NC(=O)C3CC3)ccc2O[C@@H]1CN(C)S(=O)(=O)c1cn(C)cn1 | 7.4 | 6.9
CCS(=O)(=O)NCC[C@@H]1CC[C@H](NC(=O)Cc2ccccn2)[C@@H](CO)O1 | 1.4 | 8.8
CO[C@@H]1CC[C@H]2CCOc3ccc(C#N)cc3C(=O)N(C)C[C@H](C)C(=O)N(C)C[C@H]1O2 | 18.1 | 12.1
C[C@@H]1CN([C@@H](C)CO)C(=O)c2cc(NC(=O)Nc3ccc(F)cc3)ccc2O[C@@H](C)CCCCO[C@H]1CN(C)Cc1ccc(C(=O)O)cc1 | 23.2 | 10.5
